Menin-MLL FL inh: inhibitors of human menin-MLL interaction, wild-type MLL peptide; Fluorescence polarization, fluorescein-MLL peptide displacement from menin; FP activity change, % at 61.4 µM; 290,000 tested, under 10 active; AID 1766; inconclusive = falling polarisation curve, or a change in total fluorescence; inactive = total fluorescence flat and polarisation flat or rising; no compound was filed as active; the % refers to the polarisation; negative = inhibition;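 also: % of control where 0% means no effect; inhibitors lower the polarisation; unlabelled MLL peptide was the positive control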
Sfp PPTase inh: blocks B. subtilis Sfp PPTase activity. Q9F4F7. Biochemical Sfp PPTase activity, qHTS. Potency, µM, for the others: max response, negative = inhibition, usual class: inhibitors. hit rate 3.5% among 310,000. AID 1490; active = well fitted inhibition curve with a large enough effect; inconclusive = small, poorly fitted or top-dose-only effect, or another doubt; inactive = no such curve, though single readings can be large or run the other way;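 also: the enzyme is Sfp with the accession as filed and its product quenches rhodamine fluorescence; potency is read from the fitted curve at half-maximal effect; 0% = enzyme reaction without inhibitor and -100% = no enzyme wells; top concentration of the series not given in the record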
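Fluorescence-quenching assay: 15 nM Sfp-PPTase preincubated 15 min at room temperature with compound, then 5 uM rhodamine-CoA and 12.5 uM BHQ-2-labelled YbbR peptide added. Fluorescence (ex 525/em 598 nm) read at start and after 30 min; difference gives rate.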
TRPV1 PAM: enhances activation of the human vanilloid receptor TRPV1; Q8NER1; TRPV1-expressing cells, Fluo-8 calcium influx, capsaicin EC20 potentiation; host cell line not named in the record; control for the full effect not named in the record; potentiation, % at 8.33 µM; hit rate 0.02% among 320,000; AID 540277; active means potentiation above 80%; inconclusive means 30% to 80%; inactive means below 30%; also: 0% is about no effect
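Cells expressing TRPV1 were dye-loaded with Fluo-8 and read kinetically: 10 s baseline, 3 min after compound (agonist portion), then 2 min after EC20 capsaicin (allosteric enhancer portion). Calcium-bound dye fluorescence at 480/520 nm.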
ClpP mod: qHTS Assay for Activators of ClpP; ATP-dependent Clp protease proteolytic subunit (Bacillus subtilis (strain 168)), P80244; hit rate 1.9% among 340,000; purified B. subtilis ClpP, FRET peptide cleavage, 20 min; AID 651965, 2013; Potency, µM (highest dose often 57.5 µM), inactives show top-dose activity change, negative = active; active = well fitted falling curve with a large enough effect; inconclusive = small, poorly fitted or top-dose-only effect; inactive = no such curve, though single readings can be large or run the other way; also: potency is read from the fitted curve at half-maximal effect; the source files actives as falling curves though it sought activators and does not explain the sign; nearly all actives have a fitted effect of over 65% in size; many hits overshoot -100%
Target sequence (P80244 whole entry, looked up): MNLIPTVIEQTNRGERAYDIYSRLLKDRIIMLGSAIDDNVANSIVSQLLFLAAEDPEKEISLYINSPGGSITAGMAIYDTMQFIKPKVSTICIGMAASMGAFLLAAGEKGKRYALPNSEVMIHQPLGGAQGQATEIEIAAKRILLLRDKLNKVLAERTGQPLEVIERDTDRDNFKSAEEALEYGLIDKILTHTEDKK
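FRET quenching reversal measured ClpP activation: 10 microg/mL B. subtilis ClpP at pH 8 with the FRET-FV decapeptide, read at 430 nm after 320 nm excitation. The 20-min minus 0-min signal was scaled between DMSO/no-enzyme wells and ADEP (5.8 microM final).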
gsp antag: antagonists of gsp mutant (McCune-Albright syndrome); gsp-mutant cells, cAMP HTRF, 30 min; control for the full effect not named in the record; Potency, µM (highest dose often 76.9 µM), inactives show top-dose activity change, negative = inhibition, hits mostly inhibitors; hit rate 0.4% among 340,000; active = falling curve of any shape with a large fitted effect; inconclusive = falling curve, mostly with a smaller effect; inactive = flat or rising curve; cell line not stated here;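 also: intracellular cAMP measured with PDE inhibitor Ro 20-1724 present during compound exposure; potency is read from the fitted curve at half-maximal effect; % is scaled to controls: 0 for no effect and ±100 for the full control effect; nearly all actives have a fitted effect of over 65% in size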
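HTRF cAMP measurement after 30 min RT detection following 30 min, 37C compound treatment alongside […] (added as 300 uM solution) in G418-selected cells seeded at 2000/well and grown 16–24 h.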
gsp ag: agonists of gsp mutant (McCune-Albright syndrome). gsp mutant cells, cAMP HTRF, 30 min; control for the full effect not named in the record. Potency, µM (highest dose often 76.9 µM), for the others: top-dose activation (cAMP increase), actives largely listed as activators. hit rate 0.13% among 340,000. AID 624287; active = well fitted activation curve with a large enough effect; inconclusive = small, poorly fitted or top-dose-only effect, or another doubt; inactive = no such curve, though single readings can be large or run the other way; cell line not stated here;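 also: phosphodiesterase inhibitor Ro 20-1724 added with compounds to block cAMP breakdown; potency is read from the fitted curve at half-maximal effect; nearly all actives have a fitted effect of over 60% in size; about a fifth of the inactives were tested at one dose only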
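Cells in DMEM/10% FBS with G418 were pretreated with compounds in DMSO plus […] (300 uM stock) for 30 min at 37C. cAMP was measured by HTRF (cAMP-d2 plus anti-cAMP antibody-K) after 30 min at room temperature.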
D2 PAM: positive allosteric modulators of human D2 dopamine receptor. potentiation, % (no concentration beside the values). DiscoveRx D2 beta-arrestin cells, luminescence, 90 min; 100% = 57 uM dopamine signal. hit rate 0.23% among 360,000. P14416; active = potentiation of 50% or more; inconclusive = 30% to 50%; inactive = 30% or less;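 also: compound concentration not given in the record; tested on top of an EC20 dose of dopamine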
Target sequence (P14416 whole entry, looked up): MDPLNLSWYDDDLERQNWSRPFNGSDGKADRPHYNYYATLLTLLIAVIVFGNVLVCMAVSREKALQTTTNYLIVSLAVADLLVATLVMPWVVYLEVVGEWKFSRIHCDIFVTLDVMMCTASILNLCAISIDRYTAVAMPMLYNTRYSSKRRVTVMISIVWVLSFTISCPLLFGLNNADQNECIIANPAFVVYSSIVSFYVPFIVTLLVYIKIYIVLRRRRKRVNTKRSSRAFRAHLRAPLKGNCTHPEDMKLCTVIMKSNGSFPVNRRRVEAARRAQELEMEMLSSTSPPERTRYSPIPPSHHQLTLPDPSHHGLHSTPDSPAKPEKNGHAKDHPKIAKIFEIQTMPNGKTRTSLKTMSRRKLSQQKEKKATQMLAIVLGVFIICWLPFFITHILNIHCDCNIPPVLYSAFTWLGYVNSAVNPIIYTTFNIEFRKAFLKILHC
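PathHunter D2 cells, attached overnight at 37 deg C, received compound in DMSO plus dopamine at EC20 (50 nM final) for 90 min at 37 deg C. Beta-arrestin recruitment was read as luminescence after 1 h with detection reagent at ambient temperature.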
Active calls of the source: *; ? = inconclusive; . = no result given; [ ] = remark or other dose.

SMILES	Menin-MLL FL inh	Sfp PPTase inh	TRPV1 PAM	ClpP mod	gsp antag	gsp ag	D2 PAM
CCOC(=O)c1cccc(NC(=O)c2cccs2)c1	3.9	-9%	7	0.3%	-10%	13%	-13
COc1ccc(OC)c(N=Cc2c(O)[nH]c3ccccc23)c1	-5.7	-20%	-9	-3.7%	-6%	8%	-10
CCN(CC)C(=O)CC1(c2ccccc2OC)CCOC(C(C)C)C1 (stereo unspecified)	1.8	23%	4	-1.1%	-14%	-38%[inhibitor]	-12
Cc1cc(C)cc(NS(=O)(=O)c2ccc3oc(=O)ccc3c2)c1	3.9	-13%	-6	-0.1%	-5%	?	2
COc1ccc(NC(=O)C(NC(=O)c2ccc(=O)[nH]c2)c2ccc(OC)cc2)cc1 (stereo unspecified)	4.3	-1%	-2	-0.3%	11%	-21%	-12
COc1ccc(NC(=O)CSc2nc3scc(C)c3c(=O)[nH]2)cc1	-3.4	12%	16	1.5%	3%	0%	11
NS(=O)(=O)c1ccc(CNC(=O)c2cc(-c3ccccc3)nc3ccccc23)cc1	-0.3	-8%	-3	.	-19%	-11%[15.4 µM]	-8
CCOC(=O)C1CCc2nc3ccccc3c(=O)n21 (stereo unspecified)	1.5	9%	6	-1.4%	9%	8%	-11
Cc1onc(-c2ccccc2Cl)c1C(=O)OCC(=O)Nc1ccc2c(c1)OCO2	-0.7	3%	-26	-1.5%	-12%	14%	-1
Cc1sc(=NC(=O)c2ccco2)n(C)c1-c1ccccc1	2.3	-3%	.	-3.5%	3%	-41%[inhibitor]	-1
O=C(COC(=O)c1ccc2c(c1)OCCO2)Nc1cccc(S(=O)(=O)N2CCOCC2)c1	2.4	12%	-1	-10%	-7%	9%	-41
COc1ccccc1N1CCN(CC(O)COCc2cccs2)CC1 (stereo unspecified)	6.0	6%	-6	-0.4%	5%	-44%	-10
CCOc1cc(/C=C2/C(=N)N3N=C(CC)SC3=NC2=O)ccc1OC(=O)c1ccco1	?	-6%	3	-5.6%	-15%	-11%[15.4 µM]	-9
CC(OC(=O)CCC(=O)N1CCN(S(=O)(=O)c2ccc3ccccc3c2)CC1)C(=O)NC(N)=O (stereo unspecified)	4.2	13%	16	.	-4%	4%	-1
CCOC(=O)CSc1nnc(-c2cccnc2)o1	0.1	19%	-3	0.4%	6%	-2%	-8
CN(Cc1nc(-c2cnccn2)no1)CC1(c2ccccc2)CC1(C)C (stereo unspecified)	-1.4	9%	12	1.7%	4%	5%	-13
COCCN(C(=O)CNC(=O)c1ccco1)C(C(=O)NC1CCCCC1)c1cccs1 (stereo unspecified)	-0.4	5%	?	0.0%	3%	1%	-13
CCN1CCN(CCC(=O)Nc2cc(C)ccc2C)CC1	1.0	17%	9	.	12%	12%	-4
CCCCc1nc2n[nH]c(N)c2c2c1CCCC2	0.2	16%	20	-3.5%	?	?	-2
COc1cc(-c2nnc(COc3ccc(Cl)cc3C)o2)cc(OC)c1OC	1.1	5%	-8	0.9%	7%	14%	-19
COc1ccc(O)c(-c2cc(-c3ccccc3Cl)[nH]n2)c1	-8.5	-5%	7	-2.9%	-12%	17%	-1
COc1ccccc1C(=O)NCC(=O)OCC(=O)Nc1cccc(S(=O)(=O)N(C)C)c1	0.6	10%	12	.	2%	?	-5
N#C/C(=C\C=C\c1ccccc1)C(=O)Nc1ccccc1	.	3%	-31	-0.9%	-2%	-1%	-10
COc1ccc(NC(=O)CSc2nnc(-c3ccc(C)cc3)n2N)cc1	3.0	0%	-8	-0.2%	-2%	?	-11
C[C@H](NC(=O)c1nc[nH]c1C(=O)NC(c1ccccc1)c1ccccc1)C(=O)OC(C)(C)C	0.5	25%	-8	3.7%	-10%	-15%	-11
CC(=O)N1CCc2cc(Br)cc(S(=O)(=O)N3CCCCCC3)c21	4.8	18%	-2	-0.8%	?	-13%	-13
Cc1ccc(NC(=O)c2cccc(C(=O)OC(C)C)n2)c(Br)c1	1.6	-12%	-14	-0.9%	6%	14%	-4
O=C1CC(c2cccc(Oc3ccccc3)c2)NC(=O)N1 (stereo unspecified)	-0.6	-4%	15	-0.7%	10%	2%	-1
Brc1ccc2oc3c(N4CCOCC4)ncnc3c2c1	5.5	4%	-11	-4.7%	12%	23%	-18
CC(C)c1nc2c(s1)CCc1onc(-c3ccc(Cl)cc3)c1-2	.	.	-9	2.9%	8%	-58%[inhibitor]	-2
O=C(CSc1nnc(-c2ccccc2)n1-c1ccccc1)c1ccc[nH]1	4.8	31%	-17	2.2%	-4%	15%	-4
C=CCn1c(SCc2nc3ccccc3nc2C)nnc1-c1ccoc1C	1.8	-1%	13	-6.4%	8%	7%	2
O=C(COc1ccc(Cl)cc1Cl)NC(=S)Nc1ccccc1C(=O)O	4.9	-18%	2	.	.	.	.
C/C=C/C(=O)Nc1cccc(C2=NOC3(C2)C[C@@H](C(N)=O)N(C(=O)c2cc([N+](=O)[O-])cc([N+](=O)[O-])c2)C3)c1 (stereo partly specified)	2.0	?	-45	0.6%	8%	.	20
O=C(Oc1ccc2c(=O)c(Cl)coc2c1)c1cccnc1	1.1	-13%	-2	19%	-10%	-4%	-22
COc1ccc(/C=N/NC(=O)c2ccc3ccccc3c2)cc1OS(=O)(=O)c1ccc(NC(C)=O)cc1	4.1	21%	17	?	9%	-36%[inhibitor]	-5
C=CC[C@H](CC(=O)N(CCO)Cc1ccccc1)C(=O)N[C@@H](COC(=O)[C@@H](CC=C)Cc1ccc(F)cc1)Cc1ccccc1	.	.	.	1.1%	-24%	?	0
O=C(CCc1nnc(C2CCCCC2)o1)N1CCN(C2CCCCC2)CC1	-0.9	?	2	.	1%	7%[15.4 µM]	-12
O=C(CS(=O)(=O)Cc1ccccc1)Nc1ccc(Br)cc1F	.	.	.	1.1%	6%	8%	-6
O=C(/C=C/c1cccc([N+](=O)[O-])c1)N1CCN(S(=O)(=O)c2cccs2)CC1	-1.0	11%	-3	.	-16%	-10%[15.4 µM]	-5
Cc1ccc(S(=O)(=O)N(CC(O)CN2CCOCC2)c2cc(Cl)ccc2Cl)cc1 (stereo unspecified)	1.6	17%	-19	-12%	4%	3%	-22
OCC[C@H]1C[C@H](O)[C@@H](O)[C@]2(Cc3ccccc3CCO2)O1	.	.	?	1.4%	2%	-5%	-11
CCOC(=O)c1nc(Nc2ccc(C(C)=O)cc2)c2ccccc2n1	0.2	13%	-16	?	-18%	20%	-10
Cc1ccc(-c2ccc(/C=C/C(=O)c3ccccc3)o2)cc1	?	11µM*	-7	3.2%	-1%	-11%	-10
CCOC(=O)c1sc(N)c(C#N)c1COC(=O)CNC(=O)c1cc(OC)c(OC)c(OC)c1	?	-1%	1	-26%	-6%	-14%	3

In the list so far, 2 have a nitro group on carbon:
SMILES	Menin-MLL FL inh	Sfp PPTase inh	TRPV1 PAM	ClpP mod	gsp antag	gsp ag	D2 PAM
C/C=C/C(=O)Nc1cccc(C2=NOC3(C2)C[C@@H](C(N)=O)N(C(=O)c2cc([N+](=O)[O-])cc([N+](=O)[O-])c2)C3)c1 (stereo partly specified)	2.0	?	-45	0.6%	8%	.	20
O=C(/C=C/c1cccc([N+](=O)[O-])c1)N1CCN(S(=O)(=O)c2cccs2)CC1	-1.0	11%	-3	.	-16%	-10%[15.4 µM]	-5

The list goes on:
SMILES	Menin-MLL FL inh	Sfp PPTase inh	TRPV1 PAM	ClpP mod	gsp antag	gsp ag	D2 PAM
COCCN1C(=O)c2oc3cc(C)c(C)cc3c(=O)c2C1c1cccc(O)c1 (stereo unspecified)	.	.	.	-0.6%	-4%	-1%	-5
O=C1CN(c2nnnn2-c2ccccc2)CCN1	1.5	-3%	6	-2.9%	-1%	-20%	-2
Cc1ccc(S(=O)(=O)N/N=C\c2ccc([N+](=O)[O-])o2)cc1	10	-13%	16	1.1%	-3%	-23%	1
Cc1csc(NC(=O)C2CCCO2)n1 (stereo unspecified)	4.2	20%	26	0.9%	7%	-24%	9
O=C(Nc1cccc(Cl)c1)N1CCC(CO)(CCOc2ccccc2)CC1	-0.4	17%	-3	-2.5%	-15%	-117%[inhibitor]	-9
Cc1cnc(NC(=O)Cc2cccs2)s1	3.4	-16%	-13	0.0%	8%	-52%[inhibitor]	-16
COC(=O)C1=CN(Cc2cccs2)C=C(C(=O)OC)C1c1cccc(Cl)c1	6.5	8%	22	.	0%	4%[15.4 µM]	-4
CCc1nc(SCC(=O)Nc2ccc(F)cc2)c2c(=O)n(C)c(=O)n(C)c2n1	0.1	6%	0	-6.8%	0%	?	-8
O=C(NCc1ccccc1Cl)c1cccc(OC2CCN(C(=O)C3CC3)CC2)c1	.	22%	4	-1.4%	-9%	-11%	20
CCCc1nc2oc(C(=O)c3ccccc3)c(N)c2c2c1COC(C)(C)C2	4.9	15%	-7	-4.7%	3%	-20%	-11
CCCC(=O)Nc1ccc(C=C(C(C)=O)C(C)=O)cc1	2.8	-6%	-7	-0.4%	-17%	15%[15.4 µM]	0
CCCn1nc(C(=O)Nc2ccc3c(c2)OCO3)c2ccccc2c1=O	.	.	1	-2.9%	-13%	4%	-2
CS(=O)(=O)Nc1ccccc1C(=O)N1CCCC1	0.9	4%	-18	-12%	4%	-14%	-21
Cc1cc(C)nc(SCc2ccc(C(=O)N/N=C/c3ccco3)cc2)n1	0.5	?	-18	-2.2%	-14%	21%[15.4 µM]	-13
O=C(NCc1ccc2c(c1)OCO2)c1ccccc1	-0.4	6%	-5	.	9%	-21%[15.4 µM]	-1
O=C(NCc1ccco1)c1ccc2c(c1)S(=O)(=O)c1ccccc1C2=O	.	.	.	0.7%	-1%	2%	21
COc1ccc(Br)cc1/C=C(\C(=O)O)c1ccc(S(=O)(=O)N2CCCCC2)s1	.	.	17	-1.8%	-11%	6%[15.4 µM]	-19
O=C(CSc1nnc(-c2n[nH]c3ccccc23)n1-c1ccccc1)Nc1cccc(Cl)c1	-1.3	33%	1	25%	-5%	-14%	1
CCOc1ccc(S(=O)(=O)N(C)c2ccc(OCC(=O)N3CCOCC3)cc2)cc1	-1.6	-2%	-13	-2.1%	-3%	14%	-4
COC(=O)c1ccc(N/C(=N/S(=O)(=O)c2ccccc2)c2ccccc2)cc1	2.7	17%	-1	1.7%	-5%	-38%	-15
CC(=O)C1=NOC2C(=O)N(c3ccccc3)C(=O)C12 (stereo unspecified)	-1.4	3%	4	1.3%	-1%	1%	3

Screening data as filed in PubChem BioAssay.
